KCNQ2 pot – potentiators of rat KCNQ2 potassium channel. Potassium voltage-gated channel subfamily KQT member 2 (Rattus norvegicus), O88943. CHO-K1 KCNQ2, FluxOR thallium flux fluorescence; stronger effect = higher value. B-score at 10 µM. 310,000 tested, 0.54% active;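 active = fluorescence ratio B-score at least 3 SD of library B-scores, with initial fluorescence B-score within 3 SD, cut at about 5.3 in these data; same plate scores as AID 2156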;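 also: B-score of peak minus minimum over baseline fluorescence ratio after K+ and Tl+ stimulus; positive B-score means potentiation of KCNQ2 with more thallium influx and brighter signal; only the inactives scoring about 0 or higher are listed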
Target sequence (O88943 whole entry, looked up): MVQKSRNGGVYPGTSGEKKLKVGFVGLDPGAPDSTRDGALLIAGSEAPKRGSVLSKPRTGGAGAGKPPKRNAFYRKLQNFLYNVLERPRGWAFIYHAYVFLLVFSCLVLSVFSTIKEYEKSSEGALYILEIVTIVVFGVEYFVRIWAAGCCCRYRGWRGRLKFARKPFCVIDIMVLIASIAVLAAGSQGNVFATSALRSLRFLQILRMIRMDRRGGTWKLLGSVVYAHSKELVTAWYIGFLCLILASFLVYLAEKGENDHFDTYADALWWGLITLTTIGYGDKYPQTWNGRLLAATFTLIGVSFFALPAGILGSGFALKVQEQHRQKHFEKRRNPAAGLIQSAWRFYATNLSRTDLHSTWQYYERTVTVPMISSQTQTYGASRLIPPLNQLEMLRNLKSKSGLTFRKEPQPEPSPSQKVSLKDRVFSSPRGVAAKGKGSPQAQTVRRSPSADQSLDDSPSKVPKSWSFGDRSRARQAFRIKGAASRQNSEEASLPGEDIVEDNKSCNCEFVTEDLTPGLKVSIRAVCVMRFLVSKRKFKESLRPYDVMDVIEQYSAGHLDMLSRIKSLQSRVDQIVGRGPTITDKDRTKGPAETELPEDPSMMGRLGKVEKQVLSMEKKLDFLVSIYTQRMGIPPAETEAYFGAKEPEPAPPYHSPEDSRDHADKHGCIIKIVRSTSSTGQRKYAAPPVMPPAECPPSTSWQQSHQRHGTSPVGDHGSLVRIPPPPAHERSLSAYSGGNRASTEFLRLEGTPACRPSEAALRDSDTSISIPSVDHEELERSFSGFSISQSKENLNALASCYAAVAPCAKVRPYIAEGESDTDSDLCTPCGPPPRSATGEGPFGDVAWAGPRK
KCNQ2 pot baseline – recorded beside KCNQ2 pot, whose call it bears; B-score; compound at 10 µM; measured here: initial fluorescence intensity artifact check;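 brightness before thallium and not channel activity; 0 = typical well and far values either way flag optical interference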
* hit, by the source's call; · = no result given. These rows are one share of the data; the hit share may differ from the screen's.

SMILES | KCNQ2 pot | KCNQ2 pot baseline
CC(C)COc1cccc(C(=O)NC(=S)Nc2cccc(NC(=O)c3ccccc3Cl)c2)c1 | 1.1 | -2.4
CCc1nn(C(C)C(=O)NCCc2ccc(OC)c(OC)c2)c(=O)c2cc3occc3n12 (stereo not given) | 1.8 | -0.01
CCCCn1c(C)cc(/C=C(\C#N)C(=O)O)c1C | 2.1 | -1.7
Cc1cc(C)nc(N2CCC(C(=O)NCc3cccs3)CC2)n1 | 0.12 | -0.82
Cc1nc(SCC(=O)Nc2cccnc2Cl)nc(C)c1C | 0.06 | 0.08
Clc1ccc(-c2nnnn2-c2ccc(Cl)cc2)cc1 | 0.04 | -1.6
Cc1cccc(C)c1NC(=O)C1CCCN1S(=O)(=O)c1ccc2c(c1)n(C)c(=O)c(=O)n2C (stereo not given) | 1.4 | 1.8
CCCc1nnc(NC(=O)c2ccc([N+](=O)[O-])cc2)s1 | 1.3 | 0.56
Cc1cc(C(=O)OCC(=O)N2CC(C)OC(C)C2)ccc1[N+](=O)[O-] (stereo not given) | 0.28 | 1.3
Cc1ccc(S(=O)(=O)N(C)C)cc1NC(=O)CSc1nncs1 | 0.44 | 0.47
CC(NC(=O)/C=C/c1ccco1)c1nc2ccccc2n1Cc1c(Cl)cccc1Cl (stereo not given) | 1.8 | -0.57
Nc1nc(Nc2cccc(Cl)c2)nc(NCc2ccco2)c1[N+](=O)[O-] | 0.1 | -2.1
CCOC(=O)CNC(=O)CSc1nnc(-c2ccccc2)n1Cc1ccco1 | 0.52 | -0.86
CCOC(=O)CN(C(=O)c1ccccc1)c1ccccc1C | 0.48 | -0.46
CCOc1ccc(NC(=O)Nc2cccs2)cc1 | 0.87 | 1.1
Cc1ccc(C(=O)NCC(=O)N/N=C/c2cccs2)cc1[N+](=O)[O-] | 1.6 | -0.25
CN(C)CC[n+]1ccc(C(=O)c2ccccc2)cc1 | 0.5 | -1.4
Cc1ccc(CS(=O)(=O)CCC(=O)O)cc1 | 1.4 | 0.06
CCCCOC(=O)C1C2C=C[C@]3(CN(CCCOC)C(=O)[C@H]13)O2 (stereo not given in full) | 0.12 | 0.83
Cn1c(SCC(=O)N2CCCC2)nnc1-c1ccc(S(=O)(=O)N2CCCC2)cc1 | 1 | -2.2
CC(C)C(=O)N1CCN(c2cc(N3CCN(C)CC3)c(F)cc2[N+](=O)[O-])CC1 | 1.4 | -2.5
CCOC(=O)C1CCN(CC(O)COc2ccc(C(C)(C)C)cc2)CC1 (stereo not given) | 1.3 | -1
Cc1ccc(-c2cn3cccnc3n2)cc1NC(=O)c1c(-c2ccccc2Cl)noc1C | 1.3 | -0.63
Cc1ccccc1S(=O)(=O)Cc1ccc(C(=O)NCCN(Cc2ccccc2)C(C)C)o1 | 0.62 | 0.68
CC1Sc2ccc(S(=O)(=O)CCC(=O)NCc3ccccc3)cc2NC1=O (stereo not given) | 0.62 | 0.11
SMILES | KCNQ2 pot | KCNQ2 pot baseline
Cn1c(SCc2ccccn2)nnc1-c1cnccn1 | 0.27 | -0.89
Cc1cccc(C)c1NC(=O)CSc1nnc(-c2cccnc2)o1 | 0.6 | -0.16
CC(C(=O)NN=C(c1ccccc1)c1ccccc1)N1CCOCC1 (stereo not given) | 0.38 | -0.11
CC1CCCCN1C(=O)CSc1nc(-c2ccccc2)cc(=O)[nH]1 (stereo not given) | 0.32 | 0.26
Cc1nc2ccccc2c(=O)n1NC(=O)c1cncc(Br)c1 | 0.16 | 0.5
COc1ccc(CCN(C)C(=O)CCCN2C(=O)c3cccc4cccc(c34)C2=O)cc1OC | 1.4 | 0.17
Cc1ccc(C(=O)NCc2ccccn2)o1 | 0.74 | 1.3
CCOC(=O)N1CCN(C(=O)CCSc2ccc(C)cc2)CC1 | 1.8 | -1.6
CCN(CC)CCCN1C(=O)C(O)=C(C(=O)c2ccco2)C1c1ccc(OC(C)C)cc1 (stereo not given) | 1.4 | 0.04
Cc1ccc(S(=O)(=O)NC(C)c2ccccc2)cc1[N+](=O)[O-] (stereo not given) | 0.61 | 0.01
Cc1cccc(OCCNc2cc(N3CCN(C)CC3)ccc2[N+](=O)[O-])c1 | 0.11 | -1.3
CCS(=O)(=O)N1CCC(N2CCC(C)CC2)CC1 | 0.32 | 0.35
CCOc1cc(N2CCOCC2)c(OCC)cc1NC(=O)COC(=O)c1cccc2ccccc12 | 0.36 | -0.96
C/C(=N\NC(=O)c1ccc2ccccc2c1)c1cccnc1 | 0.99 | -1.4
Cc1c(C=O)c2ccccc2n1CC(=O)N1CCc2ccccc2C1 | 1.7 | -0.97
O=[N+]([O-])c1cc(Cl)ccc1Nc1ccccc1 | 0.13 | 0
Cc1cc([N+](=O)[O-])ccc1NC(=O)CSc1nncn1-c1cccnc1 | 0.19 | 0.98
O=C1/C(=C\c2ccccc2Cl)SC(=S)N1CCC(=O)N1CCCc2ccccc21 | 0.48 | 0.49
CCOC(=O)c1sc(NC(=O)CSc2nnc(C)s2)c(C(=O)OCC)c1C | 0.98 | 1.8
Cc1nnc(NC(=O)Cn2c(=O)sc3ccccc32)s1 | 0.97 | 1.3
O=C(Cn1nnc(-c2ccccc2)n1)NNC(=O)c1cccc([N+](=O)[O-])c1 | 2 | -0.23
O=C(C1CC1)N1CCN=C1SCc1ccc(F)cc1 | 0.86 | 0.25
Cc1nnc(N2C(=O)c3oc4ccccc4c(=O)c3C2c2ccco2)s1 (stereo not given) | 1.4 | -0.02
Cc1cc(C(=O)O)ccc1-n1c(C)cc(C=C2C(=O)c3ccccc3C2=O)c1C | 1.1 | -3.2
CCC(Sc1nnnn1C)C(=O)Nc1ccc(C(C)=O)cc1 (stereo not given) | 0.24 | 0.37
SMILES | KCNQ2 pot | KCNQ2 pot baseline
Cc1ccc(NC(=O)CN(C)C(C)C(=O)Nc2ccc(S(=O)(=O)N3CCCC3)cc2)cc1 (stereo not given) | 0.33 | -2
c1ccc(CSc2nnc3ccc(-c4ccco4)nn23)nc1 | 1.1 | 0.05
COc1ccc(CCNC(=O)c2c(-c3ccccc3Cl)noc2C)cc1 | 0.15 | 0.84
CCCN1CCN(C(=O)Cn2cccc2C(=O)c2ccccc2)CC1 | 0.41 | -0.11
NC(CSC12CC3CC(CC(C3)C1)C2)C(=O)O (stereo not given) | 1.2 | -2.6
COc1ccc(Br)cc1/C=N/NC(=O)CN1CCCCC1 | 0.26 | -0.03
CCn1cc(C2=NC(C)CO2)c2ccccc21 (stereo not given) | 0.41 | 0.07
CCOC(=O)Cc1c(C)nc2c(-c3ccccc3OC)c(C)nn2c1C | 0.53 | 0.03
COc1ccc(NC(=O)/C(=C\c2ccc(F)cc2)NC(=O)c2ccco2)cc1 | 0.6 | 1.5
O=[N+]([O-])c1ccc(S(=O)(=O)Nc2cccc(-c3ccc(N4CCCC4)nn3)c2)cc1 | 0.36 | -0.12
CCc1ccccc1NC(=S)NCc1ccc2c(c1)OCO2 | 0.67 | -0.22
Cc1ccc(C2=C/C(=C\c3cccnc3)C(=O)O2)cc1 | 0.08 | 0.03
O=C(COC(=O)/C=C/c1ccccc1Cl)NCCNC(=O)COC(=O)/C=C/c1ccccc1Cl | 0.89 | 1.6
COc1ccc(OC)c(C2=NOC(C(=O)N3CCN(c4ccccc4)CC3)C2)c1 (stereo not given) | 1.8 | 0.16
CCCc1ccc(OCc2ccc(C(=O)NN)o2)c(OC)c1 | 0.93 | 0.02
COCCNC(=O)Cn1cc2c(n1)CCCCC2 | 0.24 | -1.8
COc1ccc(S(=O)(=O)Cc2ccc(C(=O)N3CCN(c4cccc(C)c4)C(C)C3)o2)cc1 (stereo not given) | 0.67 | -1.1
CCN(CC)C(=O)N1CCN(C(=O)N(CC)CC)CC1 | 0.83 | 0.24
CCn1cc(/C=C(\NC(=O)c2cc(OC)c(OC)c(OC)c2)C(=O)NCCCN2CCOCC2)c2ccccc21 | 1.2 | 0.62
CCOC(=O)c1ccc(NC(=O)Nc2ccc(OC)c(OC)c2)cc1 | 0.42 | 3.3
CCn1ccnc1[C@@H]1C[C@H]2CN(c3ccccc3OC)C(=O)[C@]23CCCN13 | 0.16 | -2.5
CCC(=O)Nc1ccc(Cl)c(NC(=S)NC(C)=O)c1 | 1.1 | -0.21
Cc1ccc2c(c1)CCCN2C(=O)c1cc(C)on1 | 1.2 | 1.4
Cc1ccc(CN2CCN(c3ccccn3)CC2)s1 | 0.99 | 1.5
COC(=O)c1ccc2c(=O)[nH]c(CSc3nc(-c4ccc(F)cc4)cs3)nc2c1 | 1.1 | 0.25
SMILES | KCNQ2 pot | KCNQ2 pot baseline
CC(=O)Oc1ccc(N(C(C)=O)S(=O)(=O)c2cccs2)cc1 | 1.4 | 0.99
Cc1nn(-c2ccccc2)c(C)c1NC(=O)COC(=O)C1CC(=O)N(CCc2ccccc2)C1 (stereo not given) | 0.86 | -0.37
CCNC(=S)N/N=C/c1cn(Cc2ccc(F)cc2)c2ccccc12 | 1.1 | -1
O=C(CCCCCn1c(=S)[nH]c2ccccc2c1=O)NCc1ccc2c(c1)OCO2 | 1.6 | -2.3
Cc1cc(S(=O)(=O)NCc2cccs2)ccc1-n1cnnn1 | 1.8 | -2
COc1cc(NC(=S)N2c3ccccc3CC2C)cc(OC)c1 (stereo not given) | 1.1 | 1.4
CN(CCCNC(=O)Cn1cccc1C(=O)c1ccccc1)C1CCCCC1 | 0.81 | 2.1
CCC(=O)Nc1sc2c(c1C(N)=O)CCN(Cc1ccccc1)C2 | 0.76 | -0.83
O=C(O)C(Cc1c[nH]c2ccccc12)N1Cc2ccccc2C1=O (stereo not given) | 2 | 1.3
Cc1ccc(NC(=O)Nc2c(C)n(C)n(-c3ccccc3)c2=O)cc1C | 0.02 | -1.9
CCOc1ccc2cc(S(=O)(=O)N3CCN(C)CC3)ccc2c1 | 0.15 | 0.33
Cc1nn(Cc2ccc(C(=O)N3N=C(C(F)F)CC3(O)C(F)F)o2)c(C)c1[N+](=O)[O-] (stereo not given) | 1.4 | 0.07
Clc1ccc2nc(CN3CCCCC3)cn2c1 | 2 | -0.13
COc1ccc(CCNC(=O)CN(C)S(=O)(=O)c2ccc3c(c2)CCC(=O)N3)cc1OC | 0.41 | -1
COc1ccccc1CC(=O)NCc1ccc2c(c1)OCO2 | 0.04 | -0.02
COc1ccccc1OCCNC(=O)c1ccc(S(=O)(=O)N(C)C)cc1 | 0.06 | -0.28
CCOC(=O)N1CCN(C(=O)c2cc(COc3ccc4ncccc4c3)on2)CC1 | 0.11 | 1.4
COC(C)(C)c1cc(C(C)(C)C)nc(N)n1 | 1.8 | 0.18
O=C(COC(=O)Cc1ccsc1)NCc1ccc(Cl)cc1 | 0.18 | -2
O=C(Nn1cnnc1)c1cc(Cl)ccc1Cl | 1.1 | 0.98
CC(C)(C)C1=C(C#N)C(c2cccnc2)C(C#N)=C(N)O1 (stereo not given) | 1.2 | -0.29
O=C(Nc1ccccc1)N1CCC(n2c(=O)[nH]c3ccccc32)CC1 | 1.1 | 0.43
COc1ccc(C2C3=C(CC(C)(C)CC3=O)Nc3c2c(=O)n(C)c(=O)n3C)cc1OC (stereo not given) | 1.3 | 0.05
OCC1CCCN1C(=S)Nc1ccccc1 (stereo not given) | 0.35 | 0.43
CN1/C(=C\C(=O)c2ccco2)c2ccccc2CC1(C)C | 0.69 | 1.8
SMILES | KCNQ2 pot | KCNQ2 pot baseline
CCCCN(C)C(=O)c1ccc(S(=O)(=O)N2CCOCC2)cc1 | 0.21 | -0.52
Fc1ccccc1Cc1noc(CN2CCN(c3ccc(Cl)cn3)CC2)n1 | -5.6 | ·
CCCCOc1ccc(C(=O)N(Cc2ccccc2)C2CCS(=O)(=O)C2)cc1 (stereo not given) | 1 | -0.08
CCN(CC)CCCNC(=O)C1c2ccccc2Oc2ccccc21 | 0.16 | -0.02
COc1ccc(Nc2nc(=O)c3cc([N+](=O)[O-])ccc3s2)cc1 | 0.12 | 0.01
CCOC(=O)C(=O)NC12CC3CC(CC(C3)C1)C2 | 0.16 | -0.88
Cc1nc2ccsc2c(=O)n1-c1cccc(Cl)c1 | 0.56 | 0.29
COc1ccccc1-c1cc(N)n(S(=O)(=O)c2cccc3nsnc23)n1 | 2.4 | 0.28
O=C(Cn1cc(C(F)(F)F)ccc1=O)N1CCN(S(=O)(=O)c2ccc(Cl)cc2)CC1 | 1.1 | -1.8
CCCCCCCCC(=O)NCCOc1ccccc1 | 0.96 | -0.63
O=C(Nc1ccc(Br)cc1)c1cccc(N2C(=O)CCC2=O)c1 | 0.76 | -0.71

Ordered by heavy-atom count (smallest number first): 14 of the compounds above.
SMILES | KCNQ2 pot | KCNQ2 pot baseline
OCC1CCCN1C(=S)Nc1ccccc1 (stereo not given) | 0.35 | 0.43
CCS(=O)(=O)N1CCC(N2CCC(C)CC2)CC1 | 0.32 | 0.35
Cc1ccc(C2=C/C(=C\c3cccnc3)C(=O)O2)cc1 | 0.08 | 0.03
CC(C)(C)C1=C(C#N)C(c2cccnc2)C(C#N)=C(N)O1 (stereo not given) | 1.2 | -0.29
CCC(Sc1nnnn1C)C(=O)Nc1ccc(C(C)=O)cc1 (stereo not given) | 0.24 | 0.37
CCCCOC(=O)C1C2C=C[C@]3(CN(CCCOC)C(=O)[C@H]13)O2 (stereo not given in full) | 0.12 | 0.83
Cc1cc(C(=O)OCC(=O)N2CC(C)OC(C)C2)ccc1[N+](=O)[O-] (stereo not given) | 0.28 | 1.3
Cc1c(C=O)c2ccccc2n1CC(=O)N1CCc2ccccc2C1 | 1.7 | -0.97
CCCCOc1ccc(C(=O)N(Cc2ccccc2)C2CCS(=O)(=O)C2)cc1 (stereo not given) | 1 | -0.08
Cc1cc(C(=O)O)ccc1-n1c(C)cc(C=C2C(=O)c3ccccc3C2=O)c1C | 1.1 | -3.2
CCN(CC)CCCN1C(=O)C(O)=C(C(=O)c2ccco2)C1c1ccc(OC(C)C)cc1 (stereo not given) | 1.4 | 0.04
COc1ccc(CCN(C)C(=O)CCCN2C(=O)c3cccc4cccc(c34)C2=O)cc1OC | 1.4 | 0.17
CCOc1cc(N2CCOCC2)c(OCC)cc1NC(=O)COC(=O)c1cccc2ccccc12 | 0.36 | -0.96
CCn1cc(/C=C(\NC(=O)c2cc(OC)c(OC)c(OC)c2)C(=O)NCCCN2CCOCC2)c2ccccc21 | 1.2 | 0.62

Source: PubChem BioAssay
